# Abeta yeast res = qHTS for compounds that reverse cellular toxicity of Amyloid beta (A-beta) peptide in yeast: Primary Screen. yeast expressing A-beta42, growth rescue, OD600, 48 h; response scale: 0% DMSO, 100% iron-clioquinol control. Potency, µM (titrated, usually from 46.1 µM), for inactives: top-dose growth rescue, usual class: activators. 410,000 tested, 0.063% active. AID 1347071, 2019; note: potency is the fitted concentration of half-maximal effect; nearly all actives have a fitted effect of over 55% in size
#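 Growth rescue measured by 600 nm absorbance after 48 h yeast culture at 30 C with compound. Values normalized between DMSO and an equimolar ferric chloride plus clioquinol control.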
# PI5P4Ka inh = qHTS for Inhibitors of phosphatidylinositol 5-phosphate 4-kinase (PI5P4K) | Phosphatidylinositol 5-phosphate 4-kinase type-2 alpha (Homo sapiens), P48426 | PI5P4Kalpha enzyme, ADP-Glo luminescence, 60 min; hits give low values | AID 652105, 2013 | max response, % | 330,000 tested, 1.2% active; active = max response of -50% or lower; inconclusive = between -30% and -50%; inactive = -30% or higher; note: value at the top dose of about 77 µM; % is set by controls: 0 for no effect and ±100 for the full control effect
#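 Human PI5P4Kalpha with substrate in 0.038 M HEPES pH 7.4, 0.28 mM EGTA, 0.1% CHAPS, 5% DMSO; reaction started with 5 microM ATP (final), 60 min at room temperature. ADP formed read by ADP-Glo luminescence.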
# PLK1 PBD block = qHTS for Inhibitors of PLK1-PDB (polo-like kinase 1 - polo-box domain): Primary Screen; Serine/threonine-protein kinase PLK1 (Homo sapiens), P53350; Plk1 PBD binding of FITC phosphopeptide, fluorescence polarization; Potency, µM, without a hit: max response, negative = inhibition, hits mostly inhibitors; 360,000 tested, 2.8% active; note: potency is the fitted concentration of half-maximal effect; series mostly up to about 57 µM; % is set by controls: 0 for no effect and ±100 for the full control effect; nearly all actives have a fitted effect of over 65% in size
# EPAC1 antagonist = qHTS for Antagonist of cAMP-regulated guanine nucleotide exchange factor 3 (EPAC1): primary screen | Rap guanine nucleotide exchange factor 3 (Homo sapiens), O95398 | EPAC1 GEF assay, Rap1b-BODIPY-GDP exchange fluorescence | Potency, µM (series often up to 115 µM), for the others: at the top dose activity change, negative = inhibition, usual class: inhibitors | 360,000 tested, 0.14% active;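 note: potency is the fitted concentration of half-maximal effect; plate controls were vehicle for no effect and positive control for full effect; nearly all actives have a fitted effect of over 50% in size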
# Target sequence (O95398 whole entry, looked up): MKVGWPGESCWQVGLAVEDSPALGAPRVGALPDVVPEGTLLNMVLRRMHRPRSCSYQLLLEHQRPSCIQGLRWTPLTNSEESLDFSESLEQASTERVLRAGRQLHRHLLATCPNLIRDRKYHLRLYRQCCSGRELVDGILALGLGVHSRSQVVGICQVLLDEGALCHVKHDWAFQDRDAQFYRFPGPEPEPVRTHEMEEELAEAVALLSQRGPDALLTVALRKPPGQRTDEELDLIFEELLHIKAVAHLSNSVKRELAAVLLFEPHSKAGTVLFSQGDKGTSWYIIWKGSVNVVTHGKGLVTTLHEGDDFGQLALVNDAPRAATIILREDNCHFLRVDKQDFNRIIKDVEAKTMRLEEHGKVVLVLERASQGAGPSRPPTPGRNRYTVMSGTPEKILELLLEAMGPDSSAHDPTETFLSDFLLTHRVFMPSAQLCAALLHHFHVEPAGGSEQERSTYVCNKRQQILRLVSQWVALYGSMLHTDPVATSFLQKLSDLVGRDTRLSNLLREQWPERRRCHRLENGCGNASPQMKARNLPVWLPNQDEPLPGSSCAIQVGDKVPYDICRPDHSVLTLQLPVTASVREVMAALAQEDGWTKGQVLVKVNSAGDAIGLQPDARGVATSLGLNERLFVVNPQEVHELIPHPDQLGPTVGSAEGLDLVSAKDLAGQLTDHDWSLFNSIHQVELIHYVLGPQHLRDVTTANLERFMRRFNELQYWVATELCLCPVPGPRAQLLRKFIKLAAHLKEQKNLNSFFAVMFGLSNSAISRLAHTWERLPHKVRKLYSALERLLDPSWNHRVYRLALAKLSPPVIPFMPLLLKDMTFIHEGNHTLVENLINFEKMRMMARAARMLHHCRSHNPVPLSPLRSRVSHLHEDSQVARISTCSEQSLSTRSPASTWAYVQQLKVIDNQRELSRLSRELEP
# EPAC1 agonist = qHTS for Agonist of cAMP-regulated guanine nucleotide exchange factor 3 (EPAC1): primary screen. Rap guanine nucleotide exchange factor 3 (Homo sapiens), O95398. EPAC1 agonist qHTS, biochemical assay; response scale: 100% = response to 6.5 mM cAMP. Potency, µM (series often up to 154 µM), for the others: top-dose activation, actives largely listed as activators. 360,000 tested, 0.073% active; note: potency is the fitted concentration of half-maximal effect; nearly all actives have a fitted effect of over 60% in size
#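 EPAC1 100 nM, Rap1B–BODIPY-GDP 250 nM, unlabeled GDP 50 uM; compound titration; 5 min RT; kinetic read ex480/em540 at 5-min intervals ×30 min; data normalized to 6.5 mM cAMP agonist control.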
# FUS suppressor = qHTS for Suppressors of FUS Proteinopathy: Primary screen using FUS-linked yeast assay. S. cerevisiae FUS-expressing, growth rescue, OD600, 24 h. Potency, µM (highest dose often 76.6 µM), inactives show at the highest dose growth rescue (activation), usual class: activators. 390,000 tested, 0.24% active. AID 1347120, 2019;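 note: potency is the fitted concentration of half-maximal effect; plate controls were DMSO vehicle for no effect and reference control for full effect; nearly all actives have a fitted effect of over 55% in size; some results filed as inactive show a strong effect at the top dose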
#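 Yeast FUS proteinopathy model; galactose-induced FUS (2%), starting OD 0.005. Cpds in dilution series, 24hr, 30C, 99% humidity. Abs 600 nm growth. Pos ctrl CP55940 (top 92uM final); neg ctrl DMSO.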
# IL-2 act = qHTS of IL-2 Activators; IL-2 activation reporter assay, cell-based qHTS; stimulated with anti-CD3/CD4/CD28 beads; in transgenic mouse T cells; activation, % (series mostly up to about 46 µM); 360,000 tested, 0.065% active; in the data active = activation above about 50%; inconclusive = mostly about 30% to 49%; note: 0% is about no effect
#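 EGFP and DsRed fluorescence is measured by plate cytometry in unstimulated transgenic mouse T cells exposed to compound for 60 minutes, then stimulated 18 hours at 37 degrees C with anti-CD3/anti-CD4 beads plus anti-CD28.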
# * = called active by the depositor; u = inconclusive; x = not tested or not shown; [ ] = another dose, or the depositor's remark. Unless noted, calls come from the whole dose curve; as a rule, active = well fitted curve in the direction sought with a large enough effect; inconclusive = small, poorly fitted or top-dose-only effect, or another doubt; inactive = no such curve, though single readings can be large; an effect the other way counts as inactive or inconclusive. The list is partial, so the mix of outcomes need not match the whole.
1	O=C(CSc1nnc(-c2ccco2)n1-c1ccccc1)NCc1ccco1
2	O=C(c1ccccc1)C(CN1CCCCC1)c1ccccc1 (stereo unspecified)
3	COc1ccc(NC(=O)CN(C)C2CCS(=O)(=O)C2)cc1 (stereo unspecified)
4	COc1ccc(S(=O)(=O)N(CCN2CCOCC2)Cc2cc(OC)ccc2OC)cc1
5	O=C(c1ccc(Cl)cc1)C(CN1CCCCC1)c1ccccc1 (stereo unspecified)
6	C[C@H](NC(=O)c1nc[nH]c1C(=O)N1CCc2ccccc2C1)C(=O)OC(C)(C)C
7	COc1cc(/C=C(\C#N)c2nc3ccccc3[nH]2)ccc1O
8	COCCNC(=O)C1(C)CCCN(C(=O)c2ccccc2)C1 (stereo unspecified)
Screen / compound no.	1	2	3	4	5	6	7	8
Abeta yeast res	2%	-30%	-19%	8%	-45%[inhibitor]	-6%	-20%	-10%
PI5P4Ka inh	-2	6	-1	2	3	-6	u	-5
PLK1 PBD block	-3%	u	1%	-5%	u	-6%	63%[activator]	0%
EPAC1 antagonist	16%	u	28%	-4%	u	5%	7%	-3%
EPAC1 agonist	2%	9%	4%	0%	-1%	-18%	2%	13%
FUS suppressor	19%	20%	-4%	3%	27%	-13%	-17%	-20%
IL-2 act	-2.6	-1.1	0.5	1.5	-2.3	-0.3	3.8	0.6

# A draw from above in order of number of heavy atoms, smallest number first.
3	COc1ccc(NC(=O)CN(C)C2CCS(=O)(=O)C2)cc1 (stereo unspecified)
8	COCCNC(=O)C1(C)CCCN(C(=O)c2ccccc2)C1 (stereo unspecified)
5	O=C(c1ccc(Cl)cc1)C(CN1CCCCC1)c1ccccc1 (stereo unspecified)
Screen / compound no.	3	8	5
Abeta yeast res	-19%	-10%	-45%[inhibitor]
PI5P4Ka inh	-1	-5	3
PLK1 PBD block	1%	0%	u
EPAC1 antagonist	28%	-3%	u
EPAC1 agonist	4%	13%	-1%
FUS suppressor	-4%	-20%	27%
IL-2 act	0.5	0.6	-2.3

# Carrying on:
9	COC(=O)c1ccc(NC(=O)CNCc2ccncc2)cc1
10	Cc1ccc(NCc2ccco2)cc1C
11	Cc1cc(Br)ccc1NC(=O)CNC(=O)CN(C)C1CCS(=O)(=O)C1 (stereo unspecified)
12	COc1ccc(-c2cc(NC=O)c3ncc(-c4ccc(OC)c(OC)c4)n3c2)cc1OC
13	CCCS(=O)(=O)N1CCN(C2Cc3ccccc3C2)CC1
14	O=C(Cc1ccccc1)N/N=C/C=C/c1ccccc1[N+](=O)[O-]
15	CC(C)CC(C(=O)N1CCOCC1)N1Cc2ccccc2C1=O (stereo unspecified)
16	O=C(NCC1CC1)C1(S(=O)(=O)c2ccccc2)CC=CC1
Screen / compound no.	9	10	11	12	13	14	15	16
Abeta yeast res	28%	-24%	11%	10%	21%	-5%	-23%	-11%
PI5P4Ka inh	3	-4	-5	-26	3	-7	-1	1
PLK1 PBD block	-3%	0%	-1%	-16%	-10%	5%	-3%	-21%
EPAC1 antagonist	3%	-25%	-4%	7%	-24%	2%	11%	3%
EPAC1 agonist	-6%	0%	-4%	-2%	11%	-4%	7%	6%
FUS suppressor	28%	-10%	5%	41%	-15%	-22%	-48%	-15%
IL-2 act	-0.4	-2.0	0.5	-0.7	-4.0	-0.8	-0.4	-3.7

17	Cc1ccc(C2CC(=O)NC3=C2C(=O)CCC3)cc1Br (stereo unspecified)
18	CCc1ccc(NC(=O)c2cc(C(C)C)on2)cc1
19	CCCCOc1ccc(C(O)C(CN2CCCCC2)c2ccccc2)cc1 (stereo unspecified)
20	Cc1cc(C(=O)CCC(=O)Nc2ncccc2C)c(C)s1
21	CCC(C)NCCCOc1ccc(Cl)cc1C(C)(C)C (stereo unspecified)
22	c1csc(-c2nc(NCC3CCCO3)c3ccccc3n2)c1 (stereo unspecified)
23	COc1ccc(N(C(C)=O)S(=O)(=O)c2cccc3cccnc23)cc1
24	CC(NC(=O)CSc1nc(=O)cc(N)n1-c1ccccc1)c1ccccc1 (stereo unspecified)
Screen / compound no.	17	18	19	20	21	22	23	24
Abeta yeast res	21%	-11%	-4%	16%	0%	-3%	9%	3%
PI5P4Ka inh	4	x	-2	u	0	-1	0	4
PLK1 PBD block	-2%	-10%	0%	-17%	-19%	4%	-3%	-12%
EPAC1 antagonist	13%	2%	6%	-10%	u	-2%	-8%	-18%
EPAC1 agonist	3%	1%	1%	-5%	7%	7%	8%	-3%
FUS suppressor	11%	4%	6%	35%	x	6%	-16%	7%
IL-2 act	0.3	-0.2	-0.3	0.0	-0.4	-0.6	-0.2	-0.8

25	CCc1oc2ccccc2c1C(=O)CCN1CCCCC1
26	N#Cc1c(NC(=O)CSCC(=O)O)sc2c1CCCC2
27	O=[N+]([O-])c1c(Nc2ccccn2)cc(Cl)c2nonc12
28	O=C(c1cnn2c1NC(c1ccc(Br)cc1)CC2C(F)(F)F)N1CCN2CCCC2C1 (stereo unspecified)
29	CCN(CC)CCOCCOc1ccc(Cl)c2ccccc12
30	Cc1[nH]c2ccccc2c1C1(O)C(=O)N(C(C)C)c2ccccc21 (stereo unspecified)
31	CC(=O)Nc1cc(-c2cccc(C(=O)N(C)C)c2)cn2c(-c3ccc(F)cc3)cnc12
32	CCOC(=O)c1sc(NC(=O)CSc2ncccn2)c(C#N)c1C
Screen / compound no.	25	26	27	28	29	30	31	32
Abeta yeast res	-8%	6%	-96%[inhibitor]	-14%	-12%	5%	-10%	-5%
PI5P4Ka inh	x	x	u	x	2	-8	0	x
PLK1 PBD block	12µM*	-9%	-97%	-9%	-9%	-6%	-15%	-5%
EPAC1 antagonist	-7%	-10%	225%[activator]	-9%	-6%	-1%	20%	-2%
EPAC1 agonist	5%	0%	-299%[inhibitor]	1%	-4%	9%	-9%	6%
FUS suppressor	9%	16%	23%	50%	-14%	12%	18%	-1%
IL-2 act	-2.7	-0.9	-5.8	-2.8	-0.7	1.0	-0.1	2.9

33	O=S(=O)(Nc1ccc2c(c1)nc1n2CCOC1)c1ccc(Cl)cc1
34	CCn1c(SCC(=O)NCc2ccco2)nc2c1c(=O)n(C)c(=O)n2C
35	CCOc1ccc(C2C3=C(Nc4nc(N)[nH]c(=O)c42)c2ccccc2C3=O)cc1 (stereo unspecified)
36	O=C(CCCOc1ccccc1)N1CCCCC1
37	NC(=O)c1cnn2c1NC(c1ccc(F)cc1)CC2C(F)(F)F (stereo unspecified)
38	CCN1CCN(C(=O)c2cc(COc3ccc(F)c(F)c3)on2)[C@@H](C)C1=O
39	CC(=O)c1ccc(N2CCN(C(=O)c3ccc4ccccc4n3)CC2)cc1
40	CC(C)(C)OC(=O)CNC(=O)c1[nH]cnc1C(=O)NC1CCNCC1
Screen / compound no.	33	34	35	36	37	38	39	40
Abeta yeast res	3%	-5%	-11%	-7%	10%	2%	8%	-17%
PI5P4Ka inh	x	x	3	8	-4	3	-2	-3
PLK1 PBD block	0%	-12%	-16%	-4%	-4%	5%	-3%	-5%
EPAC1 antagonist	-14%	7%	-16%	6%	2%	6%	3%	-4%
EPAC1 agonist	0%	7%	-8%	6%	0%	-8%	13%	1%
FUS suppressor	7%	23%	x	-27%	3%	-9%	-22%	-13%
IL-2 act	-0.8	-2.2	0.6	4.5	-2.4	-1.4	0.7	-0.4

41	O=C(CSc1nnc(-c2ccccc2F)n1C1CC1)NCc1ccco1
42	COc1ccc(-c2nnc(-c3cccnc3)o2)cc1
43	O=C(O)c1cccc(-n2cccc2/C=C2/NC(=O)N(c3cccc(Cl)c3)C2=O)c1
44	Nc1nc(Nc2ccccc2)nc(NCc2ccco2)c1[N+](=O)[O-]
45	Nn1cnnc1SCC(=O)N(C1CCCCC1)C1CCCCC1
46	NS(=O)(=O)c1cccc(NC(=O)CSc2nc3nc(-c4cccs4)cc(C(F)(F)F)c3c(=O)[nH]2)c1
47	O=c1c2c(nc3c(-c4ccccc4)c[nH]n13)CCCC2
48	COc1ccc2cc(C#N)c(N3CCN(Cc4nnnn4CCC(C)C)CC3)nc2c1
Screen / compound no.	41	42	43	44	45	46	47	48
Abeta yeast res	-4%	7%	-20%	3%	13%	10%	-5%	14%
PI5P4Ka inh	-1	-2	-59*	u	3	-55*	0	2
PLK1 PBD block	-2%	-3%	u	-1%	-3%	34µM*	-18%	-15%
EPAC1 antagonist	-2%	8%	-39%	-7%	-2%	4%	8%	-2%
EPAC1 agonist	13%	0%	1%	17%	2%	0%	-7%	9%
FUS suppressor	-9%	2%	44%	11%	22%	u	9%	-4%
IL-2 act	0.4	-1.2	-2.0	-0.5	-0.5	-0.9	0.1	-0.2

49	CC1(C(=O)Nc2ccc3c(c2)OCO3)CCN1Cc1cccc2c1OCO2 (stereo unspecified)
50	Cc1cccc(NC(=O)CN2C(=O)N/C(=C\c3ccccc3OCc3ccc(C(=O)O)cc3)C2=O)c1
51	C/C(CCc1ccc2c(c1)OCO2)=N\N=C1\NC(=O)CC(C(=O)Nc2ccccc2)S1 (stereo unspecified)
52	Nc1c(Cl)cc(C2=NCCn3c2c2ccc(C(F)(F)F)cc2[n+]3[O-])cc1Cl
53	COC(=O)CN1C(=O)[C@H]2[C@@H](C3CC3)N3C(=O)CN(CCO)C(=O)[C@@]3(Cc3ccccc3)[C@H]2C1=O
54	Cn1c(CC(=O)NNC(=O)c2ccc(F)cc2F)nc2ccccc21
55	Cc1ccc(-c2nn(-c3ccccc3)c3[nH]c(=O)c(CNCc4ccccc4)cc23)cc1
56	CN(C)CCNC(=O)c1cccc(-c2cc(NC=O)c3ncc(-c4cccc(C(F)(F)F)c4)n3c2)c1
57	COc1cc(CC(=O)O)c(C(C)=O)cc1OC
58	CCSc1nnc(NC(=O)CSc2nc3c(cc2C#N)CCCC3)s1
Screen / compound no.	49	50	51	52	53	54	55	56	57	58
Abeta yeast res	-2%	6%	2%	3%	-14%	-6%	-39%[inhibitor]	-24%	-1%	6%
PI5P4Ka inh	0	-18	x	-4	0	1	x	u	1	x
PLK1 PBD block	2%	-14%	-2%	-5%	-4%	9%	5%	-11%	-6%	-2%
EPAC1 antagonist	u	28µM*	2%	2%	0%	7%	-3%	-8%	-13%	-9%
EPAC1 agonist	-10%	2%	8%	-11%	-29%	-2%	11%	-1%	0%	5%
FUS suppressor	-2%	10%	3%	8%	-38%	1%	31%	38%	15%	-24%
IL-2 act	-0.6	-1.9	1.5	4.8	0.7	0.4	-1.9	-0.1	0.6	-0.6

# Source: PubChem BioAssay (National Center for Advancing Translational Sciences (NCATS))
